Screening results as filed in PubChem BioAssay.
Tg IFNy HTS = T. gondii growth inhibition under IFN-gamma. 3.8% of 69,000 active. Toxoplasma gondii growth in IFN-gamma-treated host cells; active compounds read low; reference of the scale not given here. AID 1259416. activity change, negative = inhibition, %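 (about 20 µM by stock and volumes)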;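 active = below -70%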;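 also: host cells are HeLa cells infected with Toxoplasma gondii; parasite growth read as luciferase light; one replicate is shown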
Starred values were filed as active, the others as inactive; & = joins results of further samples. The list is partial; count on the stated rates, not on these rows.

SMILES	Tg IFNy HTS
CCC1OC(=O)[C@H](C)C(=O)[C@H](C)[C@@H](OC2O[C@H](C)C[C@H](N(C)C)[C@H]2O)[C@](C)(OC)C[C@@H](C)C(=O)[C@@H](C)[C@@H]2N(CCCCn3cnc(-c4cccnc4)c3)C(=O)O[C@]12C (stereo partly specified)	-11.4
Cc1ccsc1-c1nnc(SC2Cc3ccccc3C2=O)nc1-c1sccc1C (stereo unspecified)	386.5
COCCN1C(=O)CCC12CCCN(Cc1ccsc1)CC2 (stereo unspecified)	-6.4
Cc1ccc(C2(O)CCN(C(=O)CCc3n[nH]c4c3CCCC4)CC2)nc1	-4.6
CCOCC1CN(C(=O)COc2ccccc2)Cc2c1cnn2C (stereo unspecified)	-1.7
O=c1n(CCn2cncn2)nc(C2CCNCC2)n1-c1ccccc1	114.9
CCCc1cnc(C)nc1N1CC(c2ccccn2)C1	-1.8
N[C@@H]1c2ccccc2C2(CCN(C(=O)c3ccc4[nH]ccc4c3)CC2)[C@H]1O	-4.2
S=C(Nc1ccccc1Cl)SCCSC(=S)Nc1ccccc1Cl	-13.2
CCOC(=O)c1sc(NC(=O)CSc2n[nH]c(-c3ccccn3)n2)c(C#N)c1C	-107.6*
CCOC(=O)NC(NCCc1cc2ccccc2[nH]1)(C(F)(F)F)C(F)(F)F	82.0
Cc1oc(-c2ccc(OC(C)C)cc2)nc1Cn1ccn2nc(-c3ccccc3)cc2c1=O	-21.1
COc1cc(CNCc2ccc(F)cc2)cc(Cl)c1OCc1cccnc1	-35.6
COC(=O)c1cc(=O)nc2sccn12	-53.1
Cc1cnn(Cc2nc(-c3ccc(NC(=O)c4ccc(Br)o4)cc3)oc2C)c1	-33.1
COc1ccc2n[nH]c(CN(C)Cc3nc(-c4cccnc4)no3)c2c1	-1.4
COCCN1CCC2(C1)c1ccccc1S(=O)(=O)N2CC1CC1 (stereo unspecified)	29.2
O=C(c1nc2sccn2c1CN1CCC(c2ccccc2Cl)C1)N1CCCCC1 (stereo unspecified)	1.5
COc1cccc(N2CC3(CCN(C(=O)N4CCCC4)C3)CC2=O)c1 (stereo unspecified)	0.9
Cc1cccc(C)c1OCCCN(C)C(=O)c1ccc2nccn2c1	-12.6

Part of the list above in a different format.
| SMILES | Tg IFNy HTS |
| --- | --- |
| COCCN1CCC2(C1)c1ccccc1S(=O)(=O)N2CC1CC1 (stereo unspecified) | 29.2 |
| CCOC(=O)c1sc(NC(=O)CSc2n[nH]c(-c3ccccn3)n2)c(C#N)c1C | -107.6* |
| Cc1ccsc1-c1nnc(SC2Cc3ccccc3C2=O)nc1-c1sccc1C (stereo unspecified) | 386.5 |

An excerpt taken from the entries so far, as a working copy:
SMILES	Tg IFNy HTS
COc1cccc(N2CC3(CCN(C(=O)N4CCCC4)C3)CC2=O)c1 (stereo unspecified)	0.9
Cc1cccc(C)c1OCCCN(C)C(=O)c1ccc2nccn2c1	-12.6

(continued)
SMILES	Tg IFNy HTS
CCCCC1CCC(C(=O)Nc2cc(C)nn2-c2ncnc3c2cnn3-c2ccc(Cl)cc2)CC1 (stereo unspecified)	9.5
Cc1cccc2[nH]c(CCNC(=O)C(C)n3cc(Cl)cn3)nc12 (stereo unspecified)	-1.1
CC(C)c1ccc(S(=O)(=O)N2CCC3(CC2)NCCN=C3NCc2ccccc2)cc1	6.9
FC(F)(F)C(OCc1nc(CCc2ccccc2)n[nH]1)c1ccccc1 (stereo unspecified)	-6.8
CC(=O)N1[C@H](CO)[C@H](c2ccc(-c3ccccc3F)cc2)[C@@H]1CNC(C)C	-18.1
O=C(c1ccccc1)c1cc(C(=O)c2ccccc2)c(-c2ccccc2)nc1-c1ccccc1	-89.3*
Cc1cc2ccccc2n1CCC(=O)NCc1nccn1C	6.7
CO[C@H](CN(C)S(=O)(=O)c1cn(C)cn1)[C@H](C)CN(C(=O)Nc1ccc(C(F)(F)F)cc1)[C@@H](C)CO	-32.0
CC(C)N1CCO[C@]2(CCC[C@H]2COCC(=O)N2CCCC2)C1	-3.2
COCCn1c(C)cc(-c2csc(N)n2)c1C	23.8
CCN(CCO)CCCC(C)Nc1ccnc2cc(Cl)ccc12 (stereo unspecified)	16.8&16.8
Cc1cc(C)c(C)c(OCCCNC(=O)c2cncnc2C)c1	19.9
NCC1CCN(Cc2cnc(NCc3ccccc3)nc2)C1 (stereo unspecified)	0.8
CC(O)CN(Cc1ccc2c(c1)OCO2)Cc1cncn1Cc1ccccc1 (stereo unspecified)	20.1
CCOC(=O)c1nc(N(C)c2ccccc2CC)c2ccccc2n1	-54.3
CS(=O)(=O)N1CCCn2c(nc(Cn3cncn3)cc2=O)C1	-27.2
CC(C)(C)c1[nH]ncc1CN[C@@H]1C2CCCC2[C@H]1c1ccccc1 (stereo partly specified)	-63.5
Cc1noc(CN(C)C(=O)CSc2ccncc2)n1	1.2
CN(C)c1ncc(CN2CCN(S(=O)(=O)c3ccccc3)CC2)s1	11.1
OCCOc1cccc(CN2C[C@H]3C[C@H](O)[C@@H](O)C[C@H]3C2)c1	6.4
CN(Cc1ccccc1)C1(C(=O)NCCN2CCNC2=O)Cc2ccccc2C1	-0.7
CCn1c(N2CCN(C(=O)c3ccccc3)CC2)nc2c1c(=O)n(C)c(=O)n2C	-56.0
COCC(=O)N1[C@H](CO)[C@H]2c3ccccc3NC[C@H]21	2.2
Cc1cnc(N2CCC3(CC2)CN(c2cnn(C)c2)C(=O)CO3)nc1	-3.0
CC(=O)c1sc(Nc2ccc(F)c(Cl)c2)nc1N	19.8
CC(C)c1ccc(N2CC3(CCN(Cc4ccccc4)CC3)OC2=O)cc1	-29.2
Cc1oc(C2CCN(C(=O)c3cc(F)ccc3Cl)CC2)nc1C(=O)N1CCCC1	-12.9
COc1ccccc1OC1CCN(S(=O)(=O)NCc2ccccc2)CC1	-4.5
Fc1cccc(CN2CCN(Cc3ccc4nonc4c3)CC2)c1	-9.7
CC(NCc1csc(-c2cccs2)n1)C(=O)NC1CCCC1 (stereo unspecified)	19.8
CS(=O)(=O)c1cnc(N2CCCCC2)nc1C1CCN(C(=O)Cc2ccsc2)CC1	-18.7
CN1C(=O)CCc2cc(NC(=O)Cc3ccc(Cl)cc3)ccc21	0.0
CC1CC1C(=O)N1C[C@H]2CCCC(N(C)Cc3cccnc3)[C@@H]2C1 (stereo partly specified)	2.8
COCCNC(=O)C[C@@H]1COC[C@@H]2CN(c3ccc(C)nn3)C[C@@H]21	-8.7
CCOc1ccccc1-c1nc(CN2CCNC(=O)C2c2cccc(F)c2)c(C)o1 (stereo unspecified)	26.0
CCN(CC)c1ccc2c(C)c(CN3CCOCC3)c(=O)oc2c1	96.7
CCOc1ccccc1-c1nc(Cn2cnc3nc4c(cc3c2=O)CC(C)CC4)c(C)o1 (stereo unspecified)	97.9
O=C(c1ccncc1)N1CCC2(CCN2c2ncccn2)C1 (stereo unspecified)	5.5
CCCCN1CCN(Cc2ncccc2C(=O)O)CC1	1.3
O=C(NCc1ccc(C(F)(F)F)cc1)c1c(O)c2cccnc2[nH]c1=O	91.3
CCn1c(SCC(=O)N2CCCC2)nnc1-c1ccncc1	3.0
CN(Cc1cccs1)C(=S)SCc1cccs1	-16.6
CCC(=O)N1[C@H](CO)[C@@H]2c3ccccc3N(C(=O)c3cnccn3)C[C@@H]21	-2.6
Cc1ncc2c(c1CNC(=O)/C=C/c1ccccc1)CCN(C(=O)C1CC(=O)OC13CCCCC3)C2 (stereo unspecified)	1.4
COc1ccc(NC(=O)COc2nc(C)nc3ccccc23)cc1	17.6
c1ccc2c(N3CCN(Cc4cc5n(n4)CCCNC5)CC3)nsc2c1	-3.4
CCc1ccc(CN2CC[C@@H]3[C@H]2CCN3c2nncs2)o1	-34.5
COc1ccc(NC(=O)N(C)C[C@H]2Oc3ccc(NC(=O)Nc4cccc5ccccc45)cc3CC(=O)N([C@H](C)CO)C[C@@H]2C)cc1	57.0
O=C(c1ccccn1)N1C[C@H]2[C@@H](c3ccccc31)[C@@H](CO)N2C(=O)Nc1ccccc1Cl	-3.6
Cc1ccccc1N1CC(C(=O)Nc2ccccc2OCc2ccccn2)CC1=O (stereo unspecified)	37.9
COC(=O)C1=C(C)N(Cc2ccco2)C(=O)/C1=C\c1ccc([N+](=O)[O-])cc1	45.2
COc1cccc2c1OCCCN(C(=O)c1cccc(Cn3cccn3)c1)C2	7.8
COc1ccc(CN2C(=O)N(C)C3(CCN(Cc4cccc(Oc5ccccc5)c4)CC3)C2=O)cc1	-81.1*
CCOC(=O)c1cnc(Nc2nc(C)c3cc(OC)ccc3n2)nc1C	39.6
CC(=O)N[C@@H]1C[C@H](CC(C)C)O[C@H](c2cn[nH]c2-c2ccc(F)cc2)C1	-3.5
COc1ccc(-c2nc(Cn3nnc(C(=O)Nc4cc(C)cc(C)c4)c3C)c(C)o2)c(OC)c1	-41.9
Nc1cccc(C(=O)CC2(O)C(=O)N(CCc3ccccc3)c3ccccc32)c1 (stereo unspecified)	34.7
Clc1ccc(CSCCc2nc(-c3cccnc3)no2)cc1Cl	36.6
Cc1cccc(C)c1OCCCN(C)C(=O)c1c(C)nc2ncccn12	0.2
CO[C@H](CN(C)C(=O)c1ccc2c(c1)OCO2)[C@@H](C)CN([C@H](C)CO)S(=O)(=O)c1ccc(Cl)cc1	-45.7

Another view of part of the listing above.
COc1ccc(NC(=O)COc2nc(C)nc3ccccc23)cc1
  Tg IFNy HTS: 17.6
COc1ccc(NC(=O)N(C)C[C@H]2Oc3ccc(NC(=O)Nc4cccc5ccccc45)cc3CC(=O)N([C@H](C)CO)C[C@@H]2C)cc1
  Tg IFNy HTS: 57.0

(continued)
SMILES	Tg IFNy HTS
COCc1cc(CNC2CCCC(C)(C)C2)n[nH]1 (stereo unspecified)	-8.0
CCn1c(C2CCN(Cc3ccc4cc(F)ccc4n3)CC2)nn(C)c1=O	14.3
Cn1c(CCNC(=O)c2cc(-c3ccncc3)nc3ccccc23)nc2ccccc21	-40.3
COc1ccc(CCNCC(=O)Nc2cccc(C)c2C)cc1	0.1
CC(=O)NCCCCCCNC(C)=O	18.9
COc1ccc(Cc2cnc(N)nc2N)cc1OC	-79.1*
COc1cccc(NC(=O)N2CCN(Cc3nc(-c4ccc(C)cc4)oc3C)CC2)c1	-1.6
Nc1nc(F)nc2c1ncn2[C@@H]1O[C@H](CO)[C@@H](O)[C@@H]1O	10.8
O=C(CNC1CCN(Cc2ccccc2)CC1)NCCC1=CCCCC1	-10.2
CCOC(=O)C(C(=O)C(F)(F)F)C(NC(N)=S)c1ccsc1 (stereo unspecified)	-5.5
COc1ccc(CCN2CCN(CCCc3ccccc3)CC2)cc1OC	20.5
CCc1nc(C)c(C(=O)N(Cc2nccn2C)C2CC2)s1	-34.3
Clc1ccc(Sc2nc3ccccc3nc2Sc2ccc(Cl)cc2)cc1	17.2
COc1cccc(-c2nn(C)c3c2[C@H]2CN(S(C)(=O)=O)C[C@@H]2C3)c1	-4.5
Cc1ccc(S(=O)(=O)N2CC[C@H]3[C@H](CO)Nc4ccc(-c5cccc(C(=O)N(C)C)c5)cc4[C@H]32)cc1	-58.4
CCn1c(CN2CCC(O)CC2)nc2ccccc2c1=O	22.3
CN(C)Cc1cn(CC[C@@H]2CC[C@@H](NC(=O)Cc3cccnc3)[C@@H](CO)O2)nn1	57.4
CCCN1CCC2(CC1)CC(Nc1ncccn1)CO2 (stereo unspecified)	-11.7
S=C1NC(c2ccccc2)=CC(c2ccsc2)S1 (stereo unspecified)	11.5
CC(Cc1cn(CCCN2CCCC2=O)nn1)c1ccccc1 (stereo unspecified)	15.8

Laid out differently: entries from further up
| compound | Tg IFNy HTS |
| --- | --- |
| Cn1c(CCNC(=O)c2cc(-c3ccncc3)nc3ccccc23)nc2ccccc21 | -40.3 |
| COc1ccc(CCNCC(=O)Nc2cccc(C)c2C)cc1 | 0.1 |

The listing continues.
SMILES	Tg IFNy HTS
CCCc1ccc(S(=O)(=O)N2CCC3(CC2)Nc2cc(F)ccc2-n2cccc23)cc1	-0.3
Cn1cc(CN2CCn3c(nnc3CS(C)(=O)=O)C2)cn1	-45.4
COC(=O)C1=C(C)NC(C)=C(C(=O)NCCCN2CCC(c3ccccc3)(c3ccccc3)CC2)C1c1ccc([N+](=O)[O-])cc1 (stereo unspecified)	-75.8*
Cc1nc2ccccc2n1CCC(=O)N1CCC(O)(CN(C)C)C1 (stereo unspecified)	-5.2
CS(=O)(=O)N1Cc2ccccc2C2(CCN(C(=O)c3cnc[nH]3)CC2)C1	1.4
COCc1ncc(CN2CCN(c3cccc(C(C)C)n3)CC2)cn1	5.7
COC(=O)c1ccc(S(=O)(=O)NC(C)(C)C)n1C	13.9
Cn1nc(C2CCN(C(=O)[C@H]3C[C@@H]4C=C[C@H]3C4)CC2)n(-c2ccccc2)c1=O	-5.6
CC(C)SCCNC(=O)c1cnn2ccn(C)c12	-3.3
O=C(Cn1ccnc1-c1ccccc1)Nc1nnc(Cc2cccc(F)c2)s1	-39.9
CO[C@H]1CCN(Cc2c(C)noc2C)[C@H]2CN(Cc3cccnc3)C[C@@H]12	-7.2
OCC1(Cc2ccccc2)CCCN(c2ccc(-c3ccccc3)nn2)C1 (stereo unspecified)	-26.9
Cc1ccc(-c2cnc(N)cn2)c2cccnc12	-0.1
O=C(c1ccccc1-c1nc2ccccc2[nH]1)N1CCOCC1	115.3
O=C1CC(c2ccc(OCCCCCOc3ccc(C4CC(=O)NC4=O)cc3)cc2)C(=O)N1 (stereo unspecified)	9.7
CCCc1nc(C)cc(N2CCC(O)(C(=O)O)CC2)n1	-49.0
Cc1nc(NC(=O)CCC(=O)NCc2cc(Cl)c3c(c2)OCCCO3)sc1C	7.2
Cc1ccc2c(c1)NC1(CCN(S(=O)(=O)c3ccc4ccccc4c3)CC1)c1cccn1-2	40.4
CC(C)COC1C2CCCC1CN(c1nncs1)C2 (stereo unspecified)	49.6
CCOc1ccccc1N(Cc1nc(-c2cccc(C)c2)oc1C)S(=O)(=O)c1cccs1	-57.4
COc1cc(C)ccc1OCc1cc(C(=O)N(C)Cc2ncc(C)[nH]2)no1	3.0
COCCn1c(C(=O)N2CCCCO2)cc2c1c1ccccc1n2C	-36.4
